# FGF22 binding = binders of human FGF22 protein, primary screen, FGF22 synaptogenesis inhibitor project, biophysical, thermal shift, single point. actives 1.5% (n = 340,000). Fibroblast growth factor 22 (Homo sapiens), Q9HCT0. recombinant FGF22 thermal shift, SYPRO orange fluorescence; percent of sucrose octasulfate shift, DMSO zero. calls only at 9.99 µM;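 active = melting point raised past a set limit in the mean and every replicate; three in four hits are not shown here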
# Target sequence (Q9HCT0 whole entry, looked up): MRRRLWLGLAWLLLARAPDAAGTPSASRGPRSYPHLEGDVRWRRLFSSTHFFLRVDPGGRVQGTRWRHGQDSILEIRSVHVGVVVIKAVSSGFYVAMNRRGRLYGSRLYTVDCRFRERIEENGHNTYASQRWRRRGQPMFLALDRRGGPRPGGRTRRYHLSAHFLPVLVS
# Calls only; i = inactive.
SMILES,FGF22 binding
COC(=O)[C@H](Cc1ccccc1)N1CC(C)(OC)O[C@@H](Cc2ccccc2)[C@H]1/C=C/C1CC1 (stereo partly drawn),i
C[C@@H]1CN([C@@H](C)CO)C(=O)c2cccc(NS(=O)(=O)c3ccc(Cl)cc3)c2O[C@@H]1CN(C)C(=O)Nc1cccc2ccccc12,i
O=C1[C@@H]2[C@@H](CC(COc3ccccc3)=C3[C@@H](c4ccccc4)OB(O)C[C@@H]32)C(=O)N1Cc1ccccc1,i
C[C@H]1CN([C@@H](C)CO)S(=O)(=O)c2ccc(-c3cccnc3)cc2O[C@@H]1CN(C)CC1CC1,i
C[C@H](CO)N1C[C@H](C)[C@H](CN(C)C(=O)NC2CCCC2)Oc2ncc(Br)cc2C1=O,i
O=C(Nc1cccc(Cl)c1)NN(c1ccccc1)C1CCS(=O)(=O)C1 (stereo not drawn),i
Cc1cc2nc3c(=O)[nH]c(=O)nc-3n(C[C@H](O)[C@H](O)[C@H](O)CO)c2cc1C,i
O=S(=O)(c1ccc(F)cc1)N1CCCCN2[C@H](CO)[C@H](c3ccc(C#CC4CCCC4)cc3)[C@H]2C1,i
Nc1[nH]c(C(=O)c2ccccc2)c(-c2ccc3ccccc3c2)c1C(=O)NCc1ccc(F)cc1,i
Cn1cnc(S(=O)(=O)N2CCCCN3[C@H](C2)[C@H](c2ccc(C4=CCCC4)cc2)[C@@H]3CO)c1,i
CO[C@H]1O[C@H](CO)[C@@H](OC(=O)Nc2ccccc2-c2ccccc2)[C@H](OC(=O)Nc2ccccc2-c2ccccc2)[C@@H]1OC(=O)Nc1ccccc1-c1ccccc1,i
CN(C)CC#Cc1ccc([C@@H]2[C@H](CO)N3CCCCN(C(=O)C4CCCC4)C[C@@H]23)cc1,i
C[C@@H]1CN([C@@H](C)CO)C(=O)c2cccc(NC(=O)Nc3ccc(C(F)(F)F)cc3)c2O[C@H]1CN(C)CC1CC1,i
COc1ccc(C#Cc2ccc3c(c2)[C@]2(C(=O)N3)[C@H](c3ccccc3OCCO)N3[C@H](c4ccccc4)[C@H](c4ccccc4)OC(=O)[C@H]3[C@@H]2C(=O)N2CCN(c3ncccn3)CC2)cc1,i
COc1ccc(CN(C)C[C@H]2OCCCC[C@@H](C)Oc3ccc(NC(=O)Nc4ccc5c(c4)OCO5)cc3C(=O)N([C@H](C)CO)C[C@H]2C)cc1,i
CNC(=O)C[C@H]1CC[C@H]2[C@@H](COc3ccc(NC(=O)c4ccccc4Cl)cc3C(=O)N2C)O1,i
C[C@H]1CN([C@@H](C)CO)C(=O)c2cc(NC(=O)Nc3ccc(C(F)(F)F)cc3)ccc2O[C@H]1CN(C)Cc1ccncc1,i
C[C@@H]1CN([C@@H](C)CO)C(=O)c2cc(NS(C)(=O)=O)ccc2O[C@@H](C)CCCCO[C@@H]1CN(C)C(=O)Nc1ccc2c(c1)OCO2,i
COc1ccc([Si](C)(C)[C@@H]2[C@@H](CCn3cc(CCO)nn3)O[C@]3(C(=O)N(Cc4ccc(N5CCC5=O)cc4)c4ccccc43)[C@H]2C)cc1,i
COC(=O)[C@H](Cc1ccccc1)N1C(=O)O[C@@H](Cc2ccccc2)[C@H]1/C=C/C1CC1,i
Nc1[nH]c(C(=O)c2ccccc2)c(-c2ccc(Cl)cc2F)c1C(=O)NCCc1c[nH]c2ccccc12,i
Cc1ccc(-c2ccc([C@H]3[C@@H](CO)N4CCCCN(S(=O)(=O)c5cccc(C)c5)C[C@@H]34)cc2)cc1,i
COc1ccc(C(=O)c2[nH]c(N)c(C(=O)c3c[nH]c4ccccc34)c2-c2ccc(OC)cc2)cc1,i
CC(C)(C)[C@@H]1C=C(C(=O)N2CCCCCCC2)O[C@H](OCCCCO)C1,i

# A draw from above in order of length of the SMILES, ascending:
SMILES,FGF22 binding
COC(=O)[C@H](Cc1ccccc1)N1C(=O)O[C@@H](Cc2ccccc2)[C@H]1/C=C/C1CC1,i
CNC(=O)C[C@H]1CC[C@H]2[C@@H](COc3ccc(NC(=O)c4ccccc4Cl)cc3C(=O)N2C)O1,i
C[C@H]1CN([C@@H](C)CO)C(=O)c2cc(NC(=O)Nc3ccc(C(F)(F)F)cc3)ccc2O[C@H]1CN(C)Cc1ccncc1,i
COc1ccc(C#Cc2ccc3c(c2)[C@]2(C(=O)N3)[C@H](c3ccccc3OCCO)N3[C@H](c4ccccc4)[C@H](c4ccccc4)OC(=O)[C@H]3[C@@H]2C(=O)N2CCN(c3ncccn3)CC2)cc1,i

# (more compounds)
SMILES,FGF22 binding
COc1ccc([Si](C)(C)[C@@H]2[C@@H](CCO)O[C@]3(C(=O)N(Cc4cccc(N5CCCCC5=O)c4)c4ccccc43)[C@H]2C)cc1,i
O=C(Nc1ccc(F)cc1)N1CCCCN2[C@H](CO)[C@H](c3ccc(-c4ccccc4F)cc3)[C@H]2C1,i
C[C@@H]1CCCCO[C@@H](CN(C)C(=O)Nc2ccc3c(c2)OCO3)[C@H](C)CN([C@@H](C)CO)C(=O)c2cc(NS(C)(=O)=O)ccc2O1,i
O=C(C[C@@H]1C=C[C@H](NC(=O)NC2CCCCC2)[C@@H](CO)O1)NCc1ccc(Cl)cc1,i
C[C@H](CO)N1C[C@H](C)[C@H](CN(C)CC2CCCC2)Oc2ncc(C#Cc3cccc(F)c3)cc2C1=O,i
O=C(C1CCC1)N1CCCCN2[C@H](CO)[C@H](c3ccc(-c4cccc(F)c4)cc3)[C@@H]2C1,i
COCC(=O)Nc1ccc2c(c1)C(=O)N(C)[C@H]1CC[C@H](CC(=O)Nc3ccccc3F)O[C@@H]1CO2,i
COC(=O)[C@@]1(Cc2ccccc2)N=C(c2ccc(OCCCO)cc2)O[C@H]1c1ccccc1CN=[N+]=[N-],i
NC(=O)[C@@H]1[C@H]2C(=O)O[C@H](c3ccccc3)[C@H](c3ccccc3)N2[C@H](c2ccc(OCCO)cc2)[C@@]12C(=O)Nc1ccccc12,i
CO[C@H]1CN(C)C(=O)c2ccc(NS(=O)(=O)c3ccccc3C)cc2OC[C@H](C)NC[C@H]1C,i
CC(C)CNC(=O)[C@@]1(C)c2ccccc2C(=O)N(Cc2ccccc2)[C@H]1c1ccc(CO)cc1,i
COC(=O)c1cc2c(c3c4ccccc4n(S(=O)(=O)c4ccc(OC)cc4)c13)C(=O)N(Cc1ccc(N(C)C)cc1)C2,i
NC(=O)[C@H]1[C@@H]2C(=O)O[C@@H](c3ccccc3)[C@@H](c3ccccc3)N2[C@@H](c2ccccc2OCCO)[C@]12C(=O)Nc1ccccc12,i
N#Cc1c(N)[nH]c(C(=O)c2ccccc2)c1-c1ccc(Br)cc1,i
C[C@H](CO)N1C[C@H](C)[C@H](CN(C)CC2CC2)OCCCC[C@H](C)Oc2ccc(NC(=O)Nc3ccc4c(c3)OCO4)cc2C1=O,i
CCOC(=O)[C@@H]1[C@@H]2C=C[C@]3(O2)[C@H](C(=O)NCc2ccccc2)N(CCCCCCO)C(=O)[C@@H]13,i
O=C(C[C@H]1CC[C@@H]2[C@H](COC[C@@H](O)CN2S(=O)(=O)c2ccccc2)O1)NCC1CCCCC1,i
C[C@H](CO)N1C[C@H](C)[C@H](CN(C)Cc2ccc(C(=O)Nc3ccccc3N)cc2)Oc2ccc(NC(=O)Cc3cn(C)c4ccccc34)cc2C1=O,i
COC(=O)C(CC#Cc1ccc2c(c1)[C@]1(C(=O)N2)[C@H](c2ccc(OCCO)cc2)N2[C@H](c3ccccc3)[C@H](c3ccccc3)OC(=O)[C@H]2[C@@H]1C(=O)N1CCCCCCC1)C(=O)OC,i
COc1ccc(CN(C)C[C@H]2Oc3ccc(NC(=O)Nc4cccc5ccccc45)cc3C(=O)N([C@H](C)CO)C[C@H]2C)cc1,i
C#Cc1ccc([C@H]2C=C(C(=O)N3CCOCC3)O[C@@H](OCCCCO)C2)cc1,i
O=C(C1=C[C@@H](c2ccc3c(c2)OCO3)C[C@@H](OCc2ccc(CO)cc2)O1)N1CCN(Cc2ccccc2)CC1,i
COC(=O)C1=C2CC[C@H](CO)NC(=O)N[C@H](Cc3ccccc3)C(=O)NCc3cn(nn3)C[C@H](Cc3ccccc3)NC(=O)c3oc(c(C(=O)OC)c3C(=O)OC)CC[C@H](CO)NC(=O)N[C@H](Cc3ccccc3)C(=O)NCc3cn(nn3)C[C@H](Cc3ccccc3)NC(=O)C(=C1C(=O)OC)O2,i
O=C(C1CCCC1)N1CCCCN2[C@@H](CO)[C@@H](c3ccc(C#CC4CC4)cc3)[C@@H]2C1,i
CCOC(=O)[C@H]1[C@@H]2C(=O)N3CCC[C@H]3[C@H](O[Si](C(C)C)(C(C)C)C(C)C)[C@H]2C=C2CCN(S(=O)(=O)c3ccc(C)cc3)C[C@H]21,i
COc1ccc(NC(=O)N2CCCCN3[C@H](CO)[C@@H](c4ccc(C#Cc5ccccc5)cc4)[C@@H]3C2)cc1,i
NC(=O)[C@H]1[C@@H]2C(=O)O[C@@H](c3ccccc3)[C@@H](c3ccccc3)N2[C@@H](c2ccc(OCCO)cc2)[C@]12C(=O)Nc1ccc(C#CC3(O)CCCCCC3)cc12,i
NC(=O)[C@@H]1[C@H]2C(=O)O[C@H](c3ccccc3)[C@H](c3ccccc3)N2[C@H](c2ccc(O)cc2)[C@@]12C(=O)Nc1ccccc12,i
NCCCCCCNC(=O)[C@@H]1C[C@@H]2C(=O)N[C@@H](Cc3ccccc3)C(=O)N2[C@@H]1c1ccc(O)cc1,i
CO[C@H]1CN(C)C(=O)c2cc(NC(=O)c3nc4ccccc4s3)ccc2OC[C@@H](C)N(Cc2ccncc2)C[C@@H]1C,i
O=C(O)c1cccc(C(=O)O)c1S(=O)Cc1ccccc1 (stereo not drawn),i
Cc1cc(C)cc(N2C(=O)CS(=O)(=O)C2c2cccc([N+](=O)[O-])c2)c1 (stereo not drawn),i
O=C(NCc1ccccc1)[C@]1(CCS(=O)(=O)c2ccccc2)N=C(c2ccc(OCCCO)cc2)O[C@@H]1c1ccccc1,i
COc1ccc(C#Cc2ccc([C@H]3[C@H](CO)N4CCCCN(C(=O)Nc5cccc(F)c5)C[C@@H]34)cc2)cc1,i
CC(C)[Si](C#CCCCC#N)(O[C@H](c1ccccc1)c1cn(Cc2cccc(Cl)c2)nn1)C(C)C,i
O=S(=O)(c1ccc(F)cc1)N1CCCCN2[C@H](CO)[C@@H](c3ccc(-c4ccccc4F)cc3)[C@@H]2C1,i

# The last seven entries of the section above are carried over, then new ones follow:
SMILES,FGF22 binding
CO[C@H]1CN(C)C(=O)c2cc(NC(=O)c3nc4ccccc4s3)ccc2OC[C@@H](C)N(Cc2ccncc2)C[C@@H]1C,i
O=C(O)c1cccc(C(=O)O)c1S(=O)Cc1ccccc1 (stereo not drawn),i
Cc1cc(C)cc(N2C(=O)CS(=O)(=O)C2c2cccc([N+](=O)[O-])c2)c1 (stereo not drawn),i
O=C(NCc1ccccc1)[C@]1(CCS(=O)(=O)c2ccccc2)N=C(c2ccc(OCCCO)cc2)O[C@@H]1c1ccccc1,i
COc1ccc(C#Cc2ccc([C@H]3[C@H](CO)N4CCCCN(C(=O)Nc5cccc(F)c5)C[C@@H]34)cc2)cc1,i
CC(C)[Si](C#CCCCC#N)(O[C@H](c1ccccc1)c1cn(Cc2cccc(Cl)c2)nn1)C(C)C,i
O=S(=O)(c1ccc(F)cc1)N1CCCCN2[C@H](CO)[C@@H](c3ccc(-c4ccccc4F)cc3)[C@@H]2C1,i
CCO[C@H]1OC(C(=O)N2CCCC2)=C[C@@H](c2ccc(C(F)(F)F)cc2)[C@@H]1CCCO,i
C=CCOC(=O)[C@@H]1[C@H]2C(=O)O[C@H](c3ccccc3)[C@H](c3ccccc3)N2[C@H](c2ccc(OCCOC(=O)[C@@H]3C[C@@H]4C(=O)N[C@@H](Cc5ccccc5)C(=O)N4[C@@H]3c3ccc(O)cc3)cc2)[C@@]12C(=O)Nc1ccc(I)cc12,i
O=C1CS(=O)(=O)C(c2ccccc2)N1c1ccc(Cl)cc1 (stereo not drawn),i
C[C@@H]1CN([C@H](C)CO)C(=O)CCCn2cc(nn2)CO[C@@H]1CN(C)C(=O)CCCN(C)C,i
Nc1[nH]c(C(=O)c2ccc(Cl)cc2)c(-c2ccc(Br)cc2)c1C(=O)NCCc1c[nH]c2ccccc12,i
O=S(=O)(c1cccs1)N1CCCCN2[C@@H](CO)[C@@H](c3ccc(C4=CCCCC4)cc3)[C@@H]2C1,i
CCOC(=O)C1C2C=CC3(O2)C1C(=O)N(Cc1ccccc1)C3C(=O)NCc1ccccc1 (stereo not drawn),i
COc1ccc([Si](C)(C)[C@H]2[C@H](CCO)O[C@@]3(C(=O)N(Cc4ccc(NC(C)=O)cc4)c4ccccc43)[C@@H]2C)cc1,i
O=C1O[C@@H](c2ccccc2)[C@@H](c2ccccc2)N2[C@@H](c3ccc(O)cc3)[C@]3(C(=O)Nc4ccc(C#CC5(O)CCCCCC5)cc43)[C@@H](C(=O)N3CCCCCCC3)[C@H]12,i
COc1ccc(CN(C)C[C@@H]2Oc3ccc(NC(=O)Cc4ccccc4)cc3CC(=O)N([C@H](C)CO)C[C@H]2C)cc1,i
O=C1O[C@@H](c2ccccc2)[C@@H](c2ccccc2)N2[C@@H](c3ccc(OCCO)cc3)[C@]3(C(=O)Nc4ccc(C#CCCO)cc43)[C@@H](C(=O)N3CCN(c4ncccn4)CC3)[C@H]12,i
COc1ccc2nc(NN=Cc3cccc(C)n3)cc(C)c2c1,i
O=S(=O)(c1ccccc1F)N1CCCCN2[C@H](C1)[C@@H](c1ccc(-c3ccccc3)cc1)[C@@H]2CO,i
CC(C)NC(=O)[C@@]1(C)c2ccccc2C(=O)N(Cc2ccccc2)[C@H]1c1ccc(CO)cc1,i
O=C(O)CCCCCCC(=O)NOCc1ccccc1,i

# Shown with each value named: part of the list above.
SMILES: O=S(=O)(c1cccs1)N1CCCCN2[C@@H](CO)[C@@H](c3ccc(C4=CCCCC4)cc3)[C@@H]2C1
  FGF22 binding: i

SMILES: CCOC(=O)C1C2C=CC3(O2)C1C(=O)N(Cc1ccccc1)C3C(=O)NCc1ccccc1 (stereo not drawn)
  FGF22 binding: i

# From PubChem

# An excerpt, so the mix of outcomes need not match the whole.
